# Screening results deposited in PubChem by Broad Institute.
# DUX4 inh: inhibitors of DUX4-driven ZSCAN4 reporter expression, primary screen, 293T cells, Gaussia and Italica luciferase; 293T-iDUX4 ZSCAN4-Gaussia luciferase reporter, 24 h; hits give low values; activity change, negative = inhibition, % (test concentration not listed); 37,000 compounds, 0.8% hits;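 active = -10% or lower and over 25 points stronger than a control reporter; inconclusive = -10% or lower with a smaller gap; inactive = above -10%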;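 note: 0% = median of neutral control wells and -100% = median of positive control wells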
# DUX4 inh difference: second read-out of DUX4 inh, no call of its own (marks repeat the call); Gaussia minus Italica difference, %; measured here: selective DUX4 reporter inhibition;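 worked out from the two reporters; negative = selective loss of the DUX4 reporter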
# DUX4 inh control: recorded beside DUX4 inh, whose call it bears; activity change, negative = inhibition, %; measured here: Italica tet-on control reporter;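 0 = neutral control and -100 = positive control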
# Active calls of the source: *; ? = inconclusive; . = no result given.
DUX4 inh difference	DUX4 inh control	canonical_smiles	DUX4 inh
-2	3.1	O=C(c1cnccn1)N1C[C@H]2[C@@H](c3ccccc31)[C@H](CO)N2C(=O)CC1CC1	1
16	3.0	C[C@@H](O)C#Cc1ccc([C@H]2[C@@H](CO)N3CCCCN(CC4CC4)C[C@@H]23)cc1	19
.	.	COc1cccc(NC(=O)Nc2ccc3c(c2)C(=O)N(C)C[C@H](OC)[C@H](C)CN(CC2CC2)[C@@H](C)CO3)c1	?
-4	-1.7	O=C1NCCOCc2cnnn2CC[C@H]1Cc1ccc(F)cc1	-5
6	1.8	COc1ccc2c3c(n(C)c2c1)[C@@H](CO)N(CC1CCCCC1)CC31CCN(C(=O)CN(C)C)CC1	7
0	-0.7	CO[C@@H]1CC[C@H]2CCOc3ccc(C#N)cc3C(=O)N(C)C[C@H](c3ccccc3)CC(=O)N(C)C[C@@H]1O2	-1
6	3.1	Cc1ccccc1S(=O)(=O)N(C)C[C@H]1OCc2ccccc2-c2ccccc2C(=O)N([C@H](C)CO)C[C@H]1C	9
8	-1.6	O=C(CC1CC1)N1CC(=O)N2[C@@H](CO)[C@H](c3ccc(C#Cc4ccccc4)cc3)[C@@H]2C1	6
-2	2.8	C[C@H]1CN([C@@H](C)CO)C(=O)c2cc(-c3ccc(C(=O)N(C)C)cc3)cnc2O[C@H]1CN(C)C(=O)c1cccnc1	1
1	-6.2	C[C@H](CO)N1C[C@H](C)[C@H](CN(C)S(=O)(=O)c2ccc(-n3cccn3)cc2)OCc2cn(nn2)CCCC1=O	-5
2	1.7	CCC(=O)Nc1ccc2c(c1)OC[C@H](C)N(C(=O)C1CC1)C[C@@H](C)[C@H](OC)CN(C)C2=O	4
10	3.5	CC(C)C#Cc1ccc([C@@H]2[C@H]3CN(C(=O)NC4CCCC4)CC(=O)N3[C@H]2CO)cc1	13
3	6.4	O=C(c1ccc(F)cc1)N1CC(=O)N2[C@@H](CO)[C@H](c3ccc(-c4cccnc4)cc3)[C@@H]2C1	9
-1	2.2	CNC[C@@H]1OCCCC[C@@H](C)Oc2ccc(NS(=O)(=O)c3cccs3)cc2C(=O)N([C@@H](C)CO)C[C@H]1C	1
2	-7.4	O=C(CC1CC1)N1CC[C@@H]2[C@@H](CO)Nc3ccc(-c4ccc(F)cc4)cc3[C@@H]21	-6

# Going on with the list:
DUX4 inh difference	DUX4 inh control	canonical_smiles	DUX4 inh
-3	4.0	C[C@@H]1CCCCO[C@@H](CN(C)Cc2ccncc2)[C@H](C)CN([C@@H](C)CO)C(=O)c2cc(NS(=O)(=O)c3ccc(Cl)cc3)ccc2O1	1
19	1.2	CCCNC(=O)N1CC2(CCN(C(=O)CCC)CC2)c2c(n(C)c3cc(OC)ccc23)[C@H]1CO	20
3	-1.5	C[C@H](CO)N1C[C@H](C)[C@@H](CN(C)Cc2ccc3c(c2)OCO3)Oc2ccc(NC(=O)C3CCCCC3)cc2C1=O	1
5	5.6	COc1ccc(-c2ccc([C@@H]3[C@H]4CN(C(=O)c5ccccn5)CC(=O)N4[C@H]3CO)cc2)cc1	10
0	4.5	CNC[C@H]1Oc2cc(C#CC(C)(C)O)ccc2S(=O)(=O)N([C@H](C)CO)C[C@H]1C	4
2	-2.8	C/C=C/c1ccc([C@H]2[C@@H](CO)N(C(=O)CC)[C@@H]2CNCC2CCCCC2)cc1	-1
4	-3.7	CCCN1C[C@H](C)[C@H](OC)CN(C)C(=O)c2ccc(NC(=O)c3ccc(F)cc3)cc2OC[C@H]1C	0
.	.	CO[C@H]1CN(C)C(=O)c2ccc(NC(=O)C3CCC3)cc2OC[C@@H](C)N(Cc2ccncc2)C[C@H]1C	?
5	3.5	C[C@H]1CN([C@@H](C)CO)C(=O)c2cccc(NC(=O)C3CCOCC3)c2O[C@H]1CN(C)C(=O)Nc1cccc2ccccc12	8
5	1.2	CCCNC(=O)[C@H]1[C@H](CO)[C@H]2Cn3c(cccc3=O)[C@H]2N1Cc1cccc(F)c1	6
8	-6.6	CC=Cc1ccc2n(c1=O)C[C@@H]1[C@@H](CO)[C@H](C(=O)NCC(F)(F)F)N(CCc3ccccc3)[C@H]21 (mixture of isomers)	1
1	1.0	COCC#Cc1ccc2c(c1)O[C@@H](CN(C)C(=O)c1ccccc1)[C@@H](C)CN([C@H](C)CO)S2(=O)=O	2
.	.	CCS(=O)(=O)Nc1ccc2c(c1)C(=O)N(C)C[C@@H](OC)[C@H](C)CN(CC1CCCCC1)[C@@H](C)CO2	?
4	-2.5	CO[C@@H](CN(C)C(=O)c1ccccc1F)[C@@H](C)CN([C@@H](C)CO)S(=O)(=O)c1ccc(F)cc1	2
-4	4.4	CCCN1[C@H](C(=O)NCCCN2CCOCC2)[C@@H](CO)[C@@H]2Cn3c(ccc(-c4ccccc4)c3=O)[C@@H]21	0

# (next part)
DUX4 inh difference	DUX4 inh control	canonical_smiles	DUX4 inh
0	2.8	O=C(C1CCCC1)N1CC2(C1)[C@@H](c1ccccc1)[C@@H](CO)N2C(=O)NC1CCCC1	3
4	1.2	C/C=C/c1ccc([C@@H]2[C@H]3CN(Cc4ccc(C(=O)OC)cc4)CC(=O)N3[C@H]2CO)cc1	6
2	2.6	O=C(C[C@H]1CC[C@@H](NC(=O)Nc2cc(F)ccc2F)[C@@H](CO)O1)NCc1ccncn1	4
14	-2.9	CC(C)NC(=O)N1CCCCN2[C@@H](CO)[C@@H](c3ccc(Br)cc3)[C@@H]2C1	11
6	2.6	C/C=C/c1ccc([C@H]2[C@@H](CO)N(S(C)(=O)=O)[C@H]2CN(CC)C(C)=O)cc1	9
3	1.4	CCN1[C@H](C(=O)NC2CCC2)[C@@H](CO)[C@@H]2Cn3c(ccc(-c4ccc(OC)cc4)c3=O)[C@@H]21	5
0	-1.8	CCS(=O)(=O)Nc1ccc2c(c1)C(=O)N(C)[C@H]1CC[C@H](CC(=O)N[C@@H]3CCN(Cc4ccccc4)C3)O[C@@H]1CO2	-2
2	0.6	C[C@@H]1CN([C@H](C)CO)C(=O)c2cc(N(C)C)ccc2O[C@@H](C)CCCCO[C@@H]1CN(C)C(=O)c1ccncc1	2
-1	-0.5	CCCNC(=O)N1[C@H](CO)[C@H](c2ccccc2)[C@@H]1CNC(=O)C1CCC1	-1
16	6.1	CCC(=O)N1[C@@H](CO)[C@@H](c2ccc(C3=CCCC3)cc2)C12CN(C(=O)COC)C2	22
.	.	C[C@H](CO)N1C[C@H](C)[C@@H](CN(C)C(=O)Cc2ccccc2)OCc2ccccc2-c2c(n(C)c3ccccc23)C1=O	?
3	-0.7	C[C@H]1CN([C@@H](C)CO)C(=O)c2cccc(NC(=O)C3CCCCC3)c2O[C@H]1CN(C)S(C)(=O)=O	2
6	7.9	CCCNC(=O)N1CC2(CCN(C(=O)COC)CC2)c2c(n(C)c3cc(OC)ccc23)[C@@H]1CO	14
.	.	O=C(c1cccc(F)c1)N1CCCCN2[C@H](C1)[C@H](c1ccc(-c3ccccc3)cc1)[C@@H]2CO	?
.	.	CCCC#Cc1ccc([C@@H]2[C@H]3CN(C(=O)NC4CCCC4)CCCCN3[C@H]2CO)cc1	?

# (list continues)
DUX4 inh difference	DUX4 inh control	canonical_smiles	DUX4 inh
6	3.8	CN1CCN(C(=O)C[C@H]2CC[C@@H]3[C@H](COC[C@H](O)CN3Cc3ccc4c(c3)OCO4)O2)CC1	10
0	3.2	CCCNC(=O)N(C)C[C@H]1Oc2ncc(C#CC3CCCCC3)cc2C(=O)N([C@@H](C)CO)C[C@@H]1C	3
15	-5.7	CCCNC(=O)[C@@H]1[C@@H](CO)[C@@H]2Cn3c(ccc(-c4cncnc4)c3=O)[C@@H]2N1C(=O)c1ccccc1F	10
0	3.0	CCC(=O)N(C)C[C@H]1Oc2ncc(C#CC(C)C)cc2C(=O)N([C@H](C)CO)C[C@@H]1C	3
0	1.5	O=C(NC[C@H]1[C@H](c2ccccc2)[C@@H](CO)N1C(=O)Cc1cccnc1)C1CC1	1
1	0.3	CNC[C@@H]1Oc2cc(Br)ccc2S(=O)(=O)N([C@@H](C)CO)C[C@@H]1C	1
-2	3.2	C/C=C/c1cccc(-c2nc(C(=O)NCc3cccc(OC)c3)cc3c2[C@@H](CCO)N([S@](=O)C(C)(C)C)C3)c1	1
1	-0.1	CO[C@@H](CN(C)C(=O)Nc1ccc(C(F)(F)F)cc1)[C@H](C)CN(Cc1ccccc1Cl)[C@@H](C)CO	1
-3	3.3	O=C(NC[C@@H]1[C@H](c2ccccc2)[C@H](CO)N1C(=O)Cc1cccnc1)C1CC1	1
14	7.2	COc1ccc2c3c(n(C)c2c1)[C@@H](CO)N(C)CC31CN(C(=O)Nc2c(C)noc2C)C1	21
0	2.6	CO[C@H](CN(C)S(=O)(=O)c1ccc(F)cc1)[C@@H](C)CN([C@H](C)CO)S(=O)(=O)c1cccc(Cl)c1	3
-3	6.9	C[C@H]1CN([C@@H](C)CO)C(=O)c2cc(C#CC3(O)CCCC3)cnc2O[C@H]1CN(C)Cc1ccccc1	4
-6	5.3	CC=Cc1ccc2n(c1=O)C[C@H]1[C@H](CO)[C@@H](C(=O)NCc3ccncn3)N(C(=O)NC3CCCC3)[C@@H]21 (mixture of isomers)	-1
.	.	COC(=O)C[C@H]1C[C@H]2c3cc(NC(=O)Nc4ccc(C(F)(F)F)cc4)ccc3O[C@H]2[C@@H](CO)O1	?
-2	0.8	CO[C@@H]1CN(C)C(=O)c2cc(NC(=O)C3CC3)ccc2OC[C@H](C)N(CC2CC2)C[C@H]1C	-1

# 10 consecutive entries out of the list so far:
DUX4 inh difference	DUX4 inh control	canonical_smiles	DUX4 inh
15	-5.7	CCCNC(=O)[C@@H]1[C@@H](CO)[C@@H]2Cn3c(ccc(-c4cncnc4)c3=O)[C@@H]2N1C(=O)c1ccccc1F	10
0	3.0	CCC(=O)N(C)C[C@H]1Oc2ncc(C#CC(C)C)cc2C(=O)N([C@H](C)CO)C[C@@H]1C	3
0	1.5	O=C(NC[C@H]1[C@H](c2ccccc2)[C@@H](CO)N1C(=O)Cc1cccnc1)C1CC1	1
1	0.3	CNC[C@@H]1Oc2cc(Br)ccc2S(=O)(=O)N([C@@H](C)CO)C[C@@H]1C	1
-2	3.2	C/C=C/c1cccc(-c2nc(C(=O)NCc3cccc(OC)c3)cc3c2[C@@H](CCO)N([S@](=O)C(C)(C)C)C3)c1	1
1	-0.1	CO[C@@H](CN(C)C(=O)Nc1ccc(C(F)(F)F)cc1)[C@H](C)CN(Cc1ccccc1Cl)[C@@H](C)CO	1
-3	3.3	O=C(NC[C@@H]1[C@H](c2ccccc2)[C@H](CO)N1C(=O)Cc1cccnc1)C1CC1	1
14	7.2	COc1ccc2c3c(n(C)c2c1)[C@@H](CO)N(C)CC31CN(C(=O)Nc2c(C)noc2C)C1	21
0	2.6	CO[C@H](CN(C)S(=O)(=O)c1ccc(F)cc1)[C@@H](C)CN([C@H](C)CO)S(=O)(=O)c1cccc(Cl)c1	3
-3	6.9	C[C@H]1CN([C@@H](C)CO)C(=O)c2cc(C#CC3(O)CCCC3)cnc2O[C@H]1CN(C)Cc1ccccc1	4

# Other compounds.
DUX4 inh difference	DUX4 inh control	canonical_smiles	DUX4 inh
-4	-1.4	CC=Cc1ccc2n(c1=O)C[C@@H]1[C@@H](CO)[C@H](C(=O)NCCC)[C@H]2N1C(=O)c1ccccc1F (mixture of isomers)	-6
-3	6.1	C[C@@H]1CN([C@H](C)CO)C(=O)c2cc(NS(=O)(=O)c3cn(C)cn3)ccc2O[C@@H](C)CCCCO[C@H]1CN(C)S(=O)(=O)c1ccc(Cl)cc1	3
-1	-0.2	CO[C@H]1CN(C)C(=O)c2cc(NS(=O)(=O)c3cn(C)cn3)ccc2OC[C@H](C)NC[C@@H]1C	-1
4	-2.1	O=C(C[C@H]1C=C[C@@H](NC(=O)c2ccc3c(c2)OCO3)[C@@H](CO)O1)NC1Cc2ccccc2C1	2
-3	2.3	C[C@H](NC(=O)C[C@H]1C[C@@H]2c3cc(NC(=O)NC4CCCCC4)ccc3O[C@@H]2[C@@H](CO)O1)c1ccccc1	-1
-1	2.2	COc1ccc(NC(=O)N(C)C[C@@H]2Oc3c(NC(=O)c4ccncc4)cccc3C(=O)N([C@@H](C)CO)C[C@H]2C)cc1	1
1	1.1	COc1ccc(NC(=O)Nc2ccc3c(c2)[C@H]2C[C@@H](CC(=O)NCc4ccncc4)O[C@@H](CO)[C@H]2O3)cc1	2
0	0.1	CS(=O)(=O)N1[C@@H]2Cn3c(ccc(C4=CCCCC4)c3=O)[C@H]1[C@@H](C(=O)N1CCCCC1)[C@@H]2CO	0
6	-0.8	C[C@H](CO)N1C[C@H](C)[C@@H](CN(C)S(=O)(=O)c2ccc3c(c2)OCCCO3)OCc2cnnn2CCCC1=O	5
-2	4.1	CN(C)C(=O)c1cc2c(c(-c3cccc(-c4ccc(F)cc4)c3)n1)[C@H](CCO)N([S@@](=O)C(C)(C)C)C2	2
1	4.1	COC(=O)C[C@H]1CC[C@H]2[C@@H](COc3ccc(NC(=O)c4ccccc4F)cc3C(=O)N2C)O1	5
4	-0.2	CCCNC(=O)N1C[C@H](O)COC[C@@H]2O[C@@H](CC(=O)OC)CC[C@H]21	4
-1	-3.0	CC(C)NC(=O)N1CC2(C1)[C@H](c1ccccc1)[C@@H](CO)N2Cc1ccccc1	-4
.	.	O=C(C[C@@H]1C[C@H]2c3cc(NS(=O)(=O)c4ccc(F)cc4)ccc3O[C@H]2[C@H](CO)O1)N1CCc2ccccc2C1	?
-2	13	CN(C)CC(=O)N1CC2(C1)[C@@H](c1ccccc1)[C@@H](CO)N2C(=O)C1CC1	10
-1	-1.3	O=C(c1ccccc1)N1[C@H](CO)[C@H](c2ccccc2)C12CN(CCC(F)(F)F)C2	-2
-3	-1.0	Cc1noc(C)c1S(=O)(=O)Nc1ccc2c(c1)C(=O)N([C@H](C)CO)C[C@@H](C)[C@@H](CN(C)C(=O)NC1CCCCC1)O2	-4

# These rows are one share of the data; rates above refer to the full screens.
